# Compound activity (PubChem BioAssay)
# A647 fluor: A647 region autofluorescence; max dye-equivalent concentration, M; Compound fluorescence, A647 channel (570/671 nm), Tris buffer; AID 592; 59,000 tested, under 10 active; active means above 1 µM dye equivalent; inconclusive means 0.1 to 1 µM; inactive means 0.1 µM or less;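 further: values scaled relative to a standard on each plate; highest value over a series up to 38 µM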
#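 Spectral profiling of library compounds in pH 8.0 Tris: 15 min room-temperature incubation, single ex/em pair (570/671 nm), response normalized to Alexa 647 equivalents.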
# A488 fluor: compound autofluorescence in A488 spectral region | compound autofluorescence, A488 spectral region, dye equivalency; active compounds read high | max dye equivalency, M | 0.1% of 59,000 active | AID 591; active = above 10 nM dye equivalent; inconclusive = 1 to 10 nM; inactive = 1 nM or less; about half of its hits are not listed in these tables;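 further: highest value over a series up to 38 µM; compound alone in buffer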
#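 Compounds pin-transferred into 100 mM Tris buffer, pH 8.0, incubated 15 min at room temperature, then imaged with 480 nm excitation/540 nm emission filters. Fluorescence converted to Alexa 488 dye-equivalent concentration via an on-plate six-point A488 standard curve.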
# TSHR ag: activates the human thyroid stimulating hormone receptor. Potency, µM (top dose mostly 57.1 µM), without a hit: at the top dose activation, hits mostly activators. AID 926. 0.48% of 73,000 active. HEK293-CNG-TSHR cells (CNG channel as cAMP sensor), membrane potential dye, cAMP. P16473; active = well fitted activation curve of enough size with the parental cells flat; inconclusive = any curve in the parental cells; inactive = parental cells flat and receptor cells flat or falling; further: potency means the concentration at half of the fitted maximal effect; % of control where 0% means no effect; weak receptor curves with flat parental cells got no call and are not listed
# Target sequence (P16473 whole entry, looked up): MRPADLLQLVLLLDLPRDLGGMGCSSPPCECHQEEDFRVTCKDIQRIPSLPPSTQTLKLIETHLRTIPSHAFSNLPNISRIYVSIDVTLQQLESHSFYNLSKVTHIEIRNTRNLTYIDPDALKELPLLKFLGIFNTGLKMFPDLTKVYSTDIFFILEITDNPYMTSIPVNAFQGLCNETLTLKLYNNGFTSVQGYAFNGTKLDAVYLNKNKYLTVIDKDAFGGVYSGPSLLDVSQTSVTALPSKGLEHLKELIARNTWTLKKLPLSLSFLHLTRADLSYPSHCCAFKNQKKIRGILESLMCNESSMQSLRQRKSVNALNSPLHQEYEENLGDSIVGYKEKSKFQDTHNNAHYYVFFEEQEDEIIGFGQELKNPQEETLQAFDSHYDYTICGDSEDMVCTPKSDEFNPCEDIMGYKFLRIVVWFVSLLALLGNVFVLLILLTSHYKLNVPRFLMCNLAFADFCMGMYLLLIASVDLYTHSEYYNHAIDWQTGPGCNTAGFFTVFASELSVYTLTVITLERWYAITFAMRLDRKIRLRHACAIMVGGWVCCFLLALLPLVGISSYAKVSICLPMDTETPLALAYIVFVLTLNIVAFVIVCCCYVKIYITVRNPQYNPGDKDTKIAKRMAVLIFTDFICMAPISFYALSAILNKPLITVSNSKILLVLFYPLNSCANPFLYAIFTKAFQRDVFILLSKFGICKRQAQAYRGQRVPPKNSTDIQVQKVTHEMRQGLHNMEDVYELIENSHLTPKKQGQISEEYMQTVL
#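 HEK 293 cells stably expressing TSHR and a cAMP-gated CNG channel; parental CNG-only cells as counterscreen. Cells preloaded 60 min with membrane potential dye plus 100 uM RO 20-1724, then compound 30 min; fluorescence read at 590 nm.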
# Resorufin autofl: compounds fluorescent in resorufin spectral region; max dye-equivalent concentration, M; 0.04% of 59,000 active; AID 588; Compound fluorescence, resorufin region 547/598 nm, buffer; active compounds read high; active = above 10 nM dye equivalent; inconclusive = 1 to 10 nM; inactive = 1 nM or less; a few of its hits are not listed in these tables; further: highest value over a series up to 38 µM
#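 Compounds in 100 mM Tris, pH 8.0, incubated 15 min at room temperature, then fluorescence read at 547 nm excitation/598 nm emission. Signal converted to dye-equivalent concentration via an on-plate six-point resorufin standard curve, per compound concentration.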
# AID923: qHTS Assay for Allosteric/Competitive Inhibitors of Caspase-1: Spectroscopic Profiling in AFC Spectral Region; compound fluorescence, AFC spectral region (405/520 nm); almost no hit is shown here; Potency, µM (top dose mostly 57.5 µM), for inactives: top-dose fluorescence increase, hits mostly activators; 1.1% of 75,000 active; AID 923, 2007; active means well fitted activation curve with a large enough effect; inconclusive means small, poorly fitted or top-dose-only effect;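 further: potency means the concentration at half of the fitted maximal effect; 0% is about no effect; scaled to a free AFC standard on each plate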
#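 Compound autofluorescence profiled at 405 nm ex/520 nm em during kinetic caspase 1 run (50 nM enzyme, 5 uM Ac-WEHD-AFC, HEPES pH 7.5, 10 mM DTT). Titration up to 57 uM; baseline from regression intercept, normalized to AFC standard curve.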
# * marks the source's active call; other numbers are inactive results; i = inactive; ? = inconclusive; . = not tested or not shown; [ ] = another dose, or the depositor's remark.
molecule | TSHR ag | A488 fluor | A647 fluor | Resorufin autofl | AID923
O=C(NCC1CCCO1)C1CCN(S(=O)(=O)c2cccc3nonc23)CC1 (stereo not given) | -5% | i | 1e-09 | i | -0.1%
COCCNc1nc(C)nc2c1nc(-c1ccccc1)n2CCN1CCCCC1 | ? | . | . | . | -0.5%
COc1ccc(C2=NOC(C(=O)Nc3ccc(C)cc3)C2)cc1OC (stereo not given) | 2% | i | 2.8e-08 | i | -1.1%
CN(C)CCCn1c(NC(=O)C2CCCCC2)nc2ccccc21 | . | i | 1.4e-08 | i | .
Cc1ccc(CC2S/C(=C(/C#N)C(=O)NCc3ccco3)N(c3ccccc3)C2=O)cc1 (stereo not given) | -17% | . | . | . | 0.4%
COc1ccc(NC(=O)C(c2ccc(C)cc2)N(C)C(=O)c2cnccn2)cc1 (stereo not given) | 7% | i | 1e-09 | i | -1.2%
CCOC(=O)c1c(C)[nH]sc1=S | . | i | 9.3e-08 | i | .
Cc1ccc(S(=O)(=O)c2cc3c(=O)n4ccccc4nc3n(C)c2=N)cc1 | . | i | 1e-09 | i | .
O=C(Nc1ccccn1)C1(c2ccccc2)CCCC1 | 7%[11.4 µM] | . | . | . | 1.3%
CCOC12NC(=O)CC(=O)N1C(c1ccccc1)=CS2 (stereo not given) | -1%[11.4 µM] | . | . | . | -0.9%
N#Cc1c(N)sc2c1CCCCCC2 | -16% | i | 1e-09 | i | -1.8%
Cc1ccccc1CN1C(=O)C2(OCCCO2)c2ccccc21 | ? | i | 3.5e-08 | i | -0.6%
C=C(C)COc1ccc(-c2nc(N)ncc2Oc2ccccc2OC)c(O)c1 | 23% | i | 4.8e-09 | i | 18%
O=C(NCCCc1ccccc1)C1CC(=O)N(c2ccc3c(c2)OCCO3)C1 (stereo not given) | 11% | i | 7.5e-09 | i | -0.4%
CCN(c1ccccc1)c1cc(C)nc2nc(C)nn12 | 19% | . | . | . | 2.4%
CCC(C)NC(=O)CS(=O)Cc1nc(-c2cccc(C)c2)oc1C (stereo not given) | 3% | . | . | . | -2.5%
CCCCCCC#CC1C=CC(Oc2ccc(C=O)cc2)C(CO)O1 (stereo not given) | 4%[11.4 µM] | . | . | . | 2.8%[11.5 µM]
COc1ccc(S(=O)(=O)n2nc(OC(=O)c3ccco3)cc2N)cc1 | -9% | i | 1e-09 | i | -0.9%
CC1CCN(C(=O)c2ccc(N(C)S(C)(=O)=O)cc2)CC1 | -1% | i | 7.3e-09 | i | -2.9%
CCOC(=O)CSc1nnc(-c2ccoc2C)n1-c1ccc(OCC)cc1 | ? | i | 4.2e-08 | i | -0.5%

# Reformatted: entries from further up
> O=C(NCCCc1ccccc1)C1CC(=O)N(c2ccc3c(c2)OCCO3)C1 (stereo not given)
  TSHR ag = 11%	A488 fluor = i	A647 fluor = 7.5e-09	Resorufin autofl = i	AID923 = -0.4%

> CCN(c1ccccc1)c1cc(C)nc2nc(C)nn12
  TSHR ag = 19%	A488 fluor = .	A647 fluor = .	Resorufin autofl = .	AID923 = 2.4%

> CCC(C)NC(=O)CS(=O)Cc1nc(-c2cccc(C)c2)oc1C (stereo not given)
  TSHR ag = 3%	A488 fluor = .	A647 fluor = .	Resorufin autofl = .	AID923 = -2.5%

> CCCCCCC#CC1C=CC(Oc2ccc(C=O)cc2)C(CO)O1 (stereo not given)
  TSHR ag = 4%[11.4 µM]	A488 fluor = .	A647 fluor = .	Resorufin autofl = .	AID923 = 2.8%[11.5 µM]

# (listing goes on)
molecule | TSHR ag | A488 fluor | A647 fluor | Resorufin autofl | AID923
CCOC(=O)c1c(C)n(C)c2ccc(O)c(CN(C)C)c12 | 13% | i | 1.5e-08 | i | 0.8%
O=C(c1ccc2nc(N3CCOCC3)sc2c1)N1CCC2(CC1)OCCO2 | -3% | i | 1e-09 | i | -0.6%
Cc1cccc2cc3c(N)c(C(=O)N4CCOCC4)sc3nc12 | -12% | i | 2e-09 | i | 3.3%
CCN(CC)CCCN1C(=O)c2oc3ccccc3c(=O)c2C1c1cccc(OC)c1OC (stereo not given) | 3% | i | 1e-09 | i | 4.1%
O=C(NCCN1CCN(c2cccc(Cl)c2)CC1)c1cccn2c(=O)c3ccccc3nc12 | ? | i | 1e-09 | i | 6.9%
CC(=O)Nc1ccc(NC(=O)CSC2=NCCS2)cc1 | -10% | i | 3e-08 | i | -0.1%
CCOC(=O)/C=c1\sc2n(c1=O)CCN=2 | -4% | i | 3.1e-08 | i | -0.1%
O=C1CCCC/C1=C\Nc1ccc(Cl)cn1 | -1%[11.4 µM] | i | 6.4e-09 | i | 0.6%
O=C(Cn1cnc2c(nnn2Cc2ccc(F)cc2)c1=O)NCc1ccc2c(c1)OCO2 | 5% | i | 3.1e-09 | i | 0.4%
O=C(Cn1nnc2c(cnn2-c2ccc(F)cc2)c1=O)c1ccccc1F | 7% | i | 1e-09 | i | 0.0%
CCCn1c(SCC(=O)OCc2ccccc2)nc2c1c(=O)n(C)c(=O)n2C | 6% | i | 1e-09 | i | 0.1%
CCOC(=O)Oc1ccc2c(c1)C(C)=CC(C)(C)N2C(=O)OCC | . | i | 4.3e-08 | i | .
O=S(=O)(NC1c2cccc3cccc(c23)C1N1CCNCC1)c1ccccc1 (stereo not given) | 17% | . | . | . | -3.2%
CC1CCN(CCNC(=O)CN(C)S(=O)(=O)c2cccc3nsnc23)CC1 | -1% | i | 4.6e-09 | i | -0.8%
COc1ccc(NC(=O)C2CC(=O)N(C)C(=Nc3ccc4c(c3)OCO4)S2)cc1 (stereo not given) | -5% | i | 5.4e-09 | i | -1.2%
COc1ccccc1NC(=O)CSc1nc2sc(C)c(C)c2c(=O)n1Cc1ccco1 | 29% | i | 4.5e-09 | i | 0.0%
Cc1ccc(N(C(=O)c2ccc(Br)o2)C2C=CS(=O)(=O)C2)cc1 (stereo not given) | 6% | . | . | . | 0.0%
O=[N+]([O-])c1ccc([C@@H](Nc2ccccc2)c2ccc3cccnc3c2O)cc1 | -3%[11.4 µM] | i | 2e-08 | i | -0.9%[11.5 µM]
CCc1[nH]nc2c1C(c1cccc(OC(=O)N3CCOCC3)c1)C(C#N)=C(N)O2 (stereo not given) | 22% | i | 1e-09 | i | -0.1%
CCc1ccc(NC(=O)CCN2C(=O)c3cccnc3C2=O)cc1 | -2% | i | 1e-09 | i | 0.9%

# Going on with the list.
molecule | TSHR ag | A488 fluor | A647 fluor | Resorufin autofl | AID923
Cc1c(C(=O)NCCN2CCOCC2)oc2ccccc12 | 6% | i | 2.8e-08 | i | -1.1%
Cc1ccc(Cn2c(CN(C)Cc3ccccc3)nc3c2c(=O)n(C)c(=O)n3C)cc1 | ? | i | 1e-09 | i | -0.3%
NC(=S)N/N=C\c1c[nH]c2ccccc12 | -4%[11.4 µM] | i | 1.8e-08 | i | 1.7%[11.5 µM]
Oc1ccc(CN2CCN(Cc3ccccc3)CC2)c2cccnc12 | -1% | i | 1.5e-09 | i | 1.8%
COc1ccc(C(=O)Cn2nnc(-c3ccccc3F)n2)cc1 | 9% | i | 5.1e-08 | i | -1.6%
Cc1cnc(NC(=O)CSc2nnc(CNc3ccc(F)cc3)n2CC2CCCO2)s1 (stereo not given) | 0% | i | 4.8e-09 | i | -0.1%
c1ccc(Cn2c(NCc3ccco3)nc3ccccc32)cc1 | 12% | i | 1e-09 | i | -0.2%
Cc1ccc(C)c(OCCCN2CCCC2)c1 | ? | i | 1e-09 | i | 3.6%
COc1cccc(Cn2c(=O)c(-c3ccc(F)c(F)c3)nc3cncnc32)c1 | -18% | i | 1e-09 | i | 4.7%
N#Cc1cccc(-n2c(-c3ccccc3)nnc2-c2ccccc2)c1C#N | . | i | 1e-09 | i | .
CCOC(=O)c1ccc(OC(=O)CCCCCN=C(N)N)cc1 | -5% | i | 1.3e-08 | i | -0.5%
COc1cc(CC(=O)OCC(=O)Nc2ccc(S(=O)(=O)N3CCCC3)cc2)cc(OC)c1OC | -3% | i | 5.1e-09 | i | 0.4%
Cc1ccc(-c2nnc(SCC(=O)N3CC(C)CC(C)C3)o2)cc1C (stereo not given) | ? | . | . | . | 1.6%
CCCc1nc(N)c(C#N)c(N)c1C#N | -9% | i | 1e-09 | i | -0.8%
N#CC1=C(SCC(=O)NCc2ccccc2)NC(=O)CC1c1ccco1 (stereo not given) | 2% | i | 6.9e-08 | i | 1.3%
CN(C)c1nc(-c2ccc3c(c2)OCO3)nc2ccccc12 | 22% | i | 1.9e-09 | i | 0.6%
CCCCNC(=O)c1ccc2c(c1)ncn2C1CCCCC1 | 1% | i | 5.7e-09 | i | 0.2%
CCn1c(SCC(=O)n2c(C)c(C)c3ccccc32)nnc1-c1ccco1 | ? | i | 9.2e-09 | i | 1.1%
CCOc1ccc2[nH]c(O)c(NC(C)=O)c2c1 | 0% | i | 1e-09 | i | 0.3%
CCCCn1c(SCC(=O)Nc2cc(NC(=O)c3ccco3)ccc2C)nc2ccccc2c1=O | ? | i | 5.9e-09 | i | -1.7%

# New compounds follow.
molecule | TSHR ag | A488 fluor | A647 fluor | Resorufin autofl | AID923
O=C(Cn1cnc2ccccc2c1=O)OCC(=O)c1ccc2c(c1)OCCO2 | . | i | 2.3e-08 | i | 0.7%
COc1cccc(C(=O)Nc2ccc(C(=O)O)cc2)c1 | -3% | i | 4.8e-09 | i | 0.5%
COc1cccc(NC(=O)CNC(=O)c2cccs2)c1 | 2% | i | 4.3e-09 | i | -2.0%
CCCc1cc(=O)[nH]c(SCC(=O)N(C)CC(=O)Nc2ccccc2CC)n1 | 14% | i | 1e-09 | i | 2.0%
CNC(=O)Nc1cccc(C(F)(F)F)c1 | -2% | i | 8.9e-09 | i | -2.7%
COc1cc(NC(=O)Cc2cccs2)cc(OC)c1 | 0% | i | 1e-09 | i | -0.2%
O=C1CC(c2ccc(Cl)cc2)n2nc(N3C(=O)c4ccccc4C3=O)nc2N1 (stereo not given) | 0% | i | 1e-09 | i | 1.3%
COc1cccc(C(=O)NCc2n[nH]c(=S)n2-c2cccc(C)c2)c1 | 2%[11.4 µM] | i | 1e-09 | i | 0.1%
O=C(c1ccccc1S(=O)(=O)NCc1ccccc1)N1CCCC1 | 4% | . | . | . | -3.0%
O=C(Cc1c(O)c2ccccc2[nH]c1=O)NCc1ccc(F)cc1 | 0% | i | 1e-09 | i | 0.9%
CCOC(=O)c1ccc(N=CC2=C(O)CC(c3ccco3)CC2=O)cc1 (stereo not given) | . | i | 3.2e-08 | i | .
Cc1c(F)cccc1NC(=O)CCC(=O)O | -12% | i | 1.6e-08 | i | 0.6%
Cc1ccccc1-c1cc(-c2ccccc2O)n[nH]1 | ? | i | 1e-09 | i | 0.0%
Nn1c(-c2ccco2)n[nH]c1=S | 11% | i | 1e-09 | i | 0.3%
CC(O)CCC(=O)NCCNC(=O)CCC(C)O (stereo not given) | -1% | i | 3.2e-09 | i | 0.5%
CCCCn1c(CN2C(=O)c3ccccc3C2=O)nc2ccccc2c1=O | 20µM* | . | . | . | 0.2%
CCN1CCN(CCCNC(=O)c2cc3sccc3n2CC)CC1 | 1% | . | . | . | -0.4%
COC(=O)c1c(NC(=O)Cc2cccs2)sc2c1CCCC2 | ? | i | 2.5e-08 | i | 1.4%
O=C(NCC1CCCO1)C1C2C=CC3(CN(Cc4cccs4)C(=O)C13)O2 (stereo not given) | 16% | i | 2.7e-08 | i | -1.3%
CC(=O)c1ccc(OCC(O)CN2C(C)CCCC2C)cc1 (stereo not given) | -3% | . | . | . | 1.0%
CCc1cccc(CC)c1N(COC)C(=O)Cn1c(CO)nc2ccccc21 | 17% | i | 1e-09 | i | 0.4%
CCN(CC)C(=O)N1CCN(S(=O)(=O)c2ccc(C)c(C)c2)CC1 | 5% | i | 4.3e-09 | i | 0.5%

# Only part of the results is shown; rates above refer to the full screens.
